High-throughput results (PubChem)
TRPV1 potentiator: HTS Assay for Compounds that Act as Potentiators of the Vanilloid Receptor 1 | Transient receptor potential cation channel subfamily V member 1 (Homo sapiens), Q8NER1 | TRPV1-expressing cells, Fluo-8 calcium influx, capsaicin EC20 potentiation; host cell line not named in the record; control for the full effect not named in the record | potentiation, % at 8.33 µM | hit rate 0.02% among 320,000 | AID 540277, 2011; active means potentiation above 80%; inconclusive means 30% to 80%; inactive means below 30%; further: 0% is about no effect
Target sequence (Q8NER1 whole entry, looked up): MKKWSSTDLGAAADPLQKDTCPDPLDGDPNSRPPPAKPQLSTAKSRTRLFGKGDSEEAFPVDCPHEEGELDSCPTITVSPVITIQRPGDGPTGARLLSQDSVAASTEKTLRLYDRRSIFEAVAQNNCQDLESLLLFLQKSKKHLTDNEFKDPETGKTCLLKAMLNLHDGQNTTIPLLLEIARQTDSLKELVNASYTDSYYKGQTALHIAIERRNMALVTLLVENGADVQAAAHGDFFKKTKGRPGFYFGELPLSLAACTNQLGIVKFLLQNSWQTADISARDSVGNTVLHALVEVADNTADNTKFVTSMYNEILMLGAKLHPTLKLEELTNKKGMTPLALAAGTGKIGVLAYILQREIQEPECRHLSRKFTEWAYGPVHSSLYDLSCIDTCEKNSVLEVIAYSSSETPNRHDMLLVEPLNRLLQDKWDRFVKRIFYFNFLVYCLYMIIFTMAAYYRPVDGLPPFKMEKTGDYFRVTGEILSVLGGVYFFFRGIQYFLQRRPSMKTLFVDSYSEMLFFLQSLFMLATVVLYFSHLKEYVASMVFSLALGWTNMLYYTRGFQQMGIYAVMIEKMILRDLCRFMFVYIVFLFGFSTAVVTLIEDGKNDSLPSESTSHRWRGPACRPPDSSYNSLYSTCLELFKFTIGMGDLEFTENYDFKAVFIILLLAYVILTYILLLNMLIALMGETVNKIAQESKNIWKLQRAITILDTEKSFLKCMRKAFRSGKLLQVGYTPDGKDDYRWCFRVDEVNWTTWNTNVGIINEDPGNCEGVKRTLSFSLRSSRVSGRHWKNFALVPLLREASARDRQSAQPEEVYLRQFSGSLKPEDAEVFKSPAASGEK
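TRPV1-expressing cells were cultured overnight at 35.5C and loaded with Fluo-8 calcium dye for 40 to 90 min at room temperature. After a 10 s baseline, compound was added and calcium influx was read kinetically for 3 min (ex 480/em 520 nm).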
Sfp inh: qHTS Assay for Inhibitors of Bacillus subtilis Sfp phosphopantetheinyl transferase (PPTase) | hit rate 3.5% among 310,000 | 4'-phosphopantetheinyl transferase ffp (Bacillus subtilis), Q9F4F7 | Biochemical Sfp PPTase activity, qHTS | Potency, µM, for inactives: max response, negative = inhibition, hits mostly inhibitors; active means well fitted inhibition curve with a large enough effect; inconclusive means small, poorly fitted or top-dose-only effect, or another doubt; inactive means no such curve, though single readings can be large or run the other way;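 further: the enzyme is Sfp with the accession as filed and its product quenches rhodamine fluorescence; potency means the concentration at half of the fitted maximal effect; 0% = enzyme reaction without inhibitor and -100% = no enzyme wells; top concentration of the series not given in the record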
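Sfp 15 nM + cpd, 15 min RT; start w/ rhodamine-CoA 5 uM, BHQ-2-YbbR 12.5 uM (final); 50 mM Hepes pH 7.6, 10 mM MgCl2, 0.01% NP-40, 0.01% BSA; read 525/598 nm at 0 and 30 min.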
gsp antagonist: qHTS for Antagonists of gsp, the Etiologic Mutation Responsible for Fibrous Dysplasia/McCune-Albright Syndrome: qHTS. Potency, µM (highest dose often 76.9 µM), for the others: at the top dose activity change, negative = inhibition, hits mostly inhibitors. gsp-mutant cells, cAMP HTRF, 30 min; control for the full effect not named in the record. hit rate 0.4% among 340,000; active = falling curve of any shape with a large fitted effect; inconclusive = falling curve, mostly with a smaller effect; inactive = flat or rising curve; cell line not stated here;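 further: intracellular cAMP measured with PDE inhibitor Ro 20-1724 present during compound exposure; potency means the concentration at half of the fitted maximal effect; on the % scale 0 is the no-effect control and ±100 the full control effect; nearly all actives have a fitted effect of over 65% in size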
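G418-selected cells were plated in DMEM/10% FBS for 16-24 h at 37C, then treated with compounds plus the PDE inhibitor […] (300 uM solution added) for 30 min at 37C. Intracellular cAMP was measured by HTRF after 30 min lysis at room temperature.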
Menin MLL FP FL: qHTS Assay for Inhibitors Targeting the Menin-MLL Interaction in MLL Related Leukemias: Competition With Fluorescein Labeled MLL-derived Peptide; Fluorescence polarization, fluorescein-MLL peptide displacement from menin; FP activity change, % at 61.4 µM; 290,000 tested, under 10 active; inconclusive = falling polarisation curve, or a change in total fluorescence; inactive = total fluorescence flat and polarisation flat or rising; no compound was filed as active; the % refers to the polarisation; negative = inhibition;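 further: % of control where 0% means no effect; inhibitors lower the polarisation; unlabelled MLL peptide was the positive control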
CtBP-E1A blk: qHTS Assay for Inhibitors of the CtBP/E1A Interaction. AID 651724, 2012. AlphaScreen GST-E1A/His-CtBP binding, 1536-well; hits give low values; control for the full effect not named in the record. hit rate 0.49% among 340,000. activity change, % (no concentration beside the values). CtBP / adenovirus E1A interaction (AlphaScreen); in the data active means activity change below about -65%; inconclusive means about -30% to -65%; inactive means above about -30%; further: on the % scale 0 is the no-effect control and ±100 the full control effect; compound concentration not given in the record
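Homogeneous bead-based format: GST-tagged E1A captured on glutathione donor beads, His-tagged CtBP on nickel acceptor beads; compounds precede bead addition by 2 h at 37 °C.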
ClpP mod: qHTS Assay for Activators of ClpP; ATP-dependent Clp protease proteolytic subunit (Bacillus subtilis (strain 168)), P80244; purified B. subtilis ClpP, FRET peptide cleavage, 20 min; Potency, µM (top dose mostly 57.5 µM), without a hit: top-dose activity change, negative = active; hit rate 1.9% among 340,000; active = well fitted falling curve with a large enough effect; inconclusive = small, poorly fitted or top-dose-only effect; inactive = no such curve, though single readings can be large or run the other way; further: potency means the concentration at half of the fitted maximal effect; the source files actives as falling curves though it sought activators and does not explain the sign; nearly all actives have a fitted effect of over 65% in size; many hits overshoot -100%
Target sequence (P80244 whole entry, looked up): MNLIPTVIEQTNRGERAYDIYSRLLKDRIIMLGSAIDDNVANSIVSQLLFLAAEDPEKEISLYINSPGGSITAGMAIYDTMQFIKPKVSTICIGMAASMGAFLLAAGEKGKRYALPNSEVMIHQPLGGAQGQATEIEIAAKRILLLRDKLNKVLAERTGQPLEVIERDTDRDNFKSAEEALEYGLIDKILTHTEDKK
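Buffer: 100 mM Tris/HCl pH8, 100 mM KCl, 0.05% low protease BSA, 2.5% glycerol, 0.01% Tween-20. ClpP 10 microg/mL final; 20 min RT; delta FRET normalized to ADEP and DMSO controls.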
gsp ag: qHTS for Agonist of gsp, the Etiologic Mutation Responsible for Fibrous Dysplasia/McCune-Albright Syndrome: qHTS; hit rate 0.13% among 340,000; AID 624287, 2012; gsp mutant cells, cAMP HTRF, 30 min; control for the full effect not named in the record; Potency, µM (titrated, usually from 76.9 µM), inactives show at the highest dose activation (cAMP increase), actives largely listed as activators; active = well fitted activation curve with a large enough effect; inconclusive = small, poorly fitted or top-dose-only effect, or another doubt; inactive = no such curve, though single readings can be large or run the other way; cell line not stated here;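 further: phosphodiesterase inhibitor Ro 20-1724 added with compounds to block cAMP breakdown; potency means the concentration at half of the fitted maximal effect; nearly all actives have a fitted effect of over 60% in size; about a fifth of the inactives were tested at one dose only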
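Cells in DMEM/10% FBS with G418 were pretreated with compounds in DMSO plus […] (300 uM stock) for 30 min at 37C. cAMP was measured by HTRF (cAMP-d2 plus anti-cAMP antibody-K) after 30 min at room temperature.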
Numbers without * were called inactive; u = inconclusive; x = no result given; & = joins results of further samples; [ ] = remark or other dose.

smiles,ClpP mod,gsp antagonist,Menin MLL FP FL,TRPV1 potentiator,CtBP-E1A blk,Sfp inh,gsp ag
COc1cccc(C(=O)OCC(=O)Nc2ccc(N3CCOCC3)cc2)c1,-1.5%,-24%,x,28,x,x,21%
Cc1ccc(S(=O)(=O)N2CCC(C(=O)N[C@@H](C)C(=O)NC3CCS(=O)(=O)C3)CC2)cc1 (stereo not given in full),x,x,-2.1,-2,x,8%,x
Cc1onc(-c2ccccc2Cl)c1C(=O)N[C@@H](C)c1ccccc1,-0.3%,-9%,x,x,4,x,22%
CCCn1nnc(NC(=O)c2ccc([N+](=O)[O-])cc2Cl)n1,x,6%,0.2,4,2,22%,-54%[inhibitor]
Cc1ccc(NC(=O)COc2ncnc3ccccc23)cc1S(=O)(=O)N1CCOCC1,1.6%,-6%,x,-12,18,9%,3%
CN(c1ccccc1)S(=O)(=O)c1cccc(C(=O)Nc2ncn[nH]2)c1,-1.8%,-6%,7.0,15,-29,2%,-4%
O=C(CSc1nnc(-c2ccccc2)n1Cc1ccccc1)NNC(=O)c1ccccc1O,u,-13%,1.4,0,-11,27%,-3%
Cc1cc2nc(CCN(Cc3cccnc3)C(=S)Nc3ccccc3)[nH]c2cc1C,-0.9%,-10%,2.3,22,9,-1%,-18%
COc1ccc(S(=O)(=O)N2CCCCC2)cc1NC(=S)Nc1ccccc1,-2.4%,4%,-0.1,7,-3,4%,-7%
COC(=O)c1c(NC(=O)COC(=O)c2ccccc2O)sc2c1CCCCC2,x,9%,-3.5,11,3,-20%,-9%[15.4 µM]
Fc1ccc(CNC(=S)NC2CCCCC2)cc1,0.1%,-4%,-0.8,-8,x,12%,2%
O=C(CONS(=O)(=O)c1ccc(Cl)cc1)NCCNc1ncc(C(F)(F)F)cc1Cl,x,-14%,4.2,14,-9,23%,28%
O=C(COC(=O)c1cc2ccccc2cc1O)c1ccccc1,0.6%,2%,x,11,9,14%,u
N#Cc1ccccc1OCC(=O)Nc1ccccc1C(=O)NC1CC1,x,-6%,x,1,10,x,11%[15.4 µM]
O=C(Nc1ccccc1)c1ccc(CSc2ccccn2)cc1,0.0%,4%,-1.5,-19,13,0%,1%
CCN(CC(=O)Nc1ccc2c(c1)OCCO2)C(=O)/C=C/c1cccc(OC)c1OC,-16%,1%,x,2,0,x,u
COc1ccc2c(c1)oc(=O)c1ccccc12,3.8%,0%,0.9,u,4,-1%,-47%[inhibitor]
CN(CCCC(=O)NCc1ccc2c(c1)OCO2)S(=O)(=O)c1ccc([N+](=O)[O-])cc1,0.1%,-4%,-2.4,4,0,8%,-7%
CCOC(=O)/C=C/c1ccc2c(c1)S(=O)(=O)N(c1cccc(OC)c1)[C@H]2CC(=O)OCC,-0.2%&-1.5%,-12%,x,x,-4,x,x
COc1ccc(-c2nc(CS(=O)CC(=O)NCc3ccc(C)cc3)c(C)o2)cc1OC (stereo not given),4.0%,1%,1.5,6,-9,7%,u
Cn1c(NC(=O)c2ccccc2F)c(-c2cccs2)c(=O)c2ccccc21,16%,-36%,u,9,13,20%,-7%[15.4 µM]
Cc1ccc(S(=O)(=O)Nc2nc(C)c(C(=O)NN)s2)cc1,x,-7%,1.7,4,-1,-8%,-1%[15.4 µM]
CCOC(=O)c1csc(NC(=O)CN2CCN(C)CC2)n1,-4.2%,11%,-3.0,-1,x,-8%,-72%[inhibitor]
O=C(COc1ccc(-c2ccccc2)cc1)N1CCN(S(=O)(=O)Cc2ccccc2)CC1,-2.4%,-1%,1.5,-11,2,-3%,-26%
CC1CC(C)CN(C/C=C/c2ccccc2[N+](=O)[O-])C1 (stereo not given),1.1%,9%,3.1,-13,-3,12%,-3%
Cc1ccc2nc(C(F)(F)F)c(C#N)c(N)c2c1,-19%,13%,-1.4,4,-2,18%,2%
COCCN1C(=O)N(c2cccc(C)c2)C(=O)C1CC(=O)Nc1cc(OC)cc(OC)c1 (stereo not given),-1.5%,-4%,-6.8,u,-4,3%,5%
O=C(/C=N/O)NCc1ccncc1,2.5%,-4%[15.4 µM],3.9,x,4,21%,-19%
Cn1c2c(c(=O)n(C)c1=O)C(c1cccc(F)c1)C(C#N)=C(N)O2 (stereo not given),0.9%,5%,u,-24,12,-10%,-2%[15.4 µM]
CCCCCN=C(N)N/N=C/c1c[nH]c2ccc(OC)cc12,-7.4%,-4%,0.1&1.2,x,u,17%&-4%,x
COc1ccc(OC)c(S(=O)(=O)N2CCC(c3nc4ccccc4[nH]3)CC2)c1,-5.5%,-8%,x,-5,-4,x,12%[15.4 µM]
Clc1ccc(-c2nnc(CCc3ccccc3)o2)c(Cl)c1,-1.6%,2%,-1.6,19,69,-22%,-19%
Cc1c(C)c2cc3c4c(oc3c(C)c2oc1=O)CCCC4,-13%,-3%,0.4,4,10,2%,u
COc1ccc(CCNC(=O)COC(=O)c2ccc(S(=O)(=O)N3CCCC3)cc2)cc1OC,x,-10%,x,x,-14,x,-5%
Cc1onc(-c2c(F)cccc2Cl)c1C(=O)OCC(=O)NCc1ccccc1,-0.8%,-17%,x,17,9,x,-15%
O=C(c1ccc(Cl)c(Cl)c1)N(Cc1ccco1)c1ccc(O)cc1,0.9%,-21%,0.1,-1,-5,-4%,7%
Cc1[nH]c(=O)c(C#N)c2c1CCCC2,28µM*,-2%,-3.4,u,1,-2%,6%
N#CC1=C(SCC(=O)c2ccccc2)NC2=C(C(=O)CCC2)C1c1ccco1 (stereo not given),-3.1%,-3%,u,4,-15,32µM*,19%
COc1ccc(N=C2C(=Nc3ccc(OC)cc3)N(c3ccc(OC)cc3)C(=S)N2c2ccccc2)cc1,0.2%,-5%,4.2,4,10,-4%,-35%[inhibitor]
O=C(OCc1cn([C@H]2CN(Cc3cccs3)[C@@H](c3ccccc3)C[C@@H]2O)nn1)c1ccccc1,-2.1%,x,x,x,0,x,-94%[inhibitor]
COCCNC(=O)COC(=O)c1ccc(S(=O)(=O)N2CCOCC2)cc1,x,7%,0.3,3,-17,9%,-6%
CCCOc1cccc(-c2nc3ccccc3c(=O)o2)c1,x,u,5.6,8,-5,13%,-8%[15.4 µM]
CC(=O)c1cccc(N(C(=O)c2ccco2)C(C(=O)NC2CCCCC2)c2ccc(C)o2)c1 (stereo not given),0.0%,-22%,3.2,-11,-2,-8%,16%[15.4 µM]
Cc1ccc2oc(-c3cc(NC(=O)c4ncn[nH]4)ccc3O)nc2c1,x,-7%,3.6,6,-16,-18%,1%
CCc1ccc(C(=O)COC(=O)c2cnc(C)cn2)cc1,0.6%,-6%,3.2,4,8,-5%,21%
Cc1cc(C)nc(-n2ncc3c2CC(c2ccc(F)cc2)CC3=O)n1 (stereo not given),0.6%,-5%,-3.4,-7,0,8%,-25%
Cc1ccccc1OCCC(=O)Nc1ccccc1C(=O)NC1CC1,x,4%,x,24,-2,x,1%[15.4 µM]
CCOC(=O)c1[nH]c(C)c(/C(O)=C2\C(=O)C(=O)N(CCCN(CC)CC)C2c2cccnc2)c1C (stereo not given),0.1%,3%,x,x,3,x,1%
Cc1ccccc1OC1CCN(C(=O)C2CCC(=O)N(C3CCCC3)C2)CC1 (stereo not given),-1.5%,3%,x,-12,x,5%,-7%
CSc1ncccc1C(=O)Nc1ccc(OC(F)(F)F)cc1,x,-3%,-1.3,-5,-2,12%,-21%[15.4 µM]
Cc1ccc(S(=O)(=O)N(Cc2ccc(F)cc2)C(=O)N2CCN(C)CC2)cc1,-13%,4%,x,3,4,x,20%[15.4 µM]
Cc1ccc(C(=O)NC2=NCCS2)cc1,x,x,-1.4,-11,x,8%,x
CC1(C)CC(=O)C(C=NCCN2CCN(CCc3ccccc3)CC2)=C(O)C1,-0.1%,7%,2.3,1,3,11%,4%
CCCN(C(=O)COC(=O)C12CCC(=O)N1c1ccccc1S2)c1c(N)n(Cc2ccccc2)c(=O)[nH]c1=O (stereo not given),-1.3%,1%,x,5,4,5%,-7%
COc1ccccc1N1CCN(C(=O)c2ccc3c(c2)NC(=O)C(CSCc2ccccc2C)N3)CC1 (stereo not given),x,x,20,-4,x,50µM*,x
NC(=O)CSc1ccc(F)cc1,x,-3%,-5.9,9,7,21%,-20%
COc1ccc(-c2cc(C(=O)Nc3ccc(C(N)=O)cc3)c3ccccc3n2)cc1,x,-22%,4.1,1,5,-3%,13%[15.4 µM]
CN1CCN(C(=O)/C=C/c2c(F)cccc2Cl)CC1,-1.3%,11%,0.4,13,4,3%,8%
CCCNC(=O)c1cn(CC)c2cc(N3CCN(C)CC3)c(F)cc2c1=O,u,9%,2.0,-9,2,16%,11%
